Assay outcomes from PubChem BioAssay.
Sa ugtP lethal – growth inhibition of ugtP-null S. aureus, primary screen, RN4220 ugtP deletion, OD600; AID 1259309, 2017; growth inhibition, % (test concentration not listed); 16 h; some inactives read as strong as hits; 330,000 compounds, 0.54% hits;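 active means z-score under -3 and OD600 up to 0.15 on both plates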;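 further: plate controls were untreated wells for no effect and antibiotic for full effect; wells of about 80 µL received 100 nL stock; the first replicate is given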
Bead autofluor – compound fluorescence in toxin protease inhibitor counterscreen; compound autofluorescence counterscreen, microsphere flow cytometry; stronger effect = higher value; fluorescence intensity (concentration not given with the values); 360,000 compounds, 3.1% hits; AID 624483;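 active means at least 3 SD above the mean of all compounds, about 16000 in these data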;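 further: 100 nL of 1 mM stock went into each well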
BJeLR viability – MLPCN primary cell-based screen for lethality selective to Ras in HRASV12 cells; 300,000 compounds, 0.17% hits; AID 1554, 2009; inhibition, % (concentration not given with the values); BJeLR (HRASV12) viability, CellTiter-Glo ATP luminescence, 48 h; reference of the scale not given here;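 active means replicate mean above 50%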;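 further: 50 nL library stock added to about 25 µL; numbers are from one replicate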
Sa RN4220 lethal – growth inhibition of S. aureus RN4220, primary screen, OD600. 16 h. 330,000 compounds, 0.33% hits. AID 1259311, 2017. inhibition, % (no concentration beside the values);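 active means z-score of -3 or lower and OD600 up to 0.18 on both plates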;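 further: plate controls were untreated cells for no effect and reference antibiotic for full effect; stock transfer was 100 nL into about 80 µL; one replicate is shown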
Mtb hypoxia rep – PubChem AID 1159583 | fluorescence inhibition, % (no concentration beside the values) | M. tuberculosis hypoxia-regulated fluorescent reporter, fluorescence | 300,000 compounds, 0.1% hits;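 active means 35 to 45% if threefold the growth effect, above 45% if 1.5-fold the growth effect; inactive means the rest, general growth blockers included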;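 further: wells of about 50 µL received 100 nL stock; 0% = vehicle wells and 100% = reference inhibitor wells; whole bacteria with a GFP reporter of the hypoxia response; strong numbers were not always called active; many hits fall short of the cut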
PrP UTR inh – inhibition of PrP 5' UTR reporter expression; cell-based PrP 5' UTR mRNA reporter, plate reader; inhibition, % (test concentration not listed); 340,000 compounds, 0.35% hits;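 active means every replicate at 50% or more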;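 further: 0 = median of the neutral control wells; tested in H4 reporter cells; numbers are from one replicate; inactives centre near -14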
Mtb hypoxia rep growth – also measured in Mtb hypoxia rep; calls as there; growth inhibition, %; measured here: M. tuberculosis growth (absorbance);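 0% = vehicle and 100% = reference antibiotic; read after six days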
* hit, by the source's call; & = joins results of further samples.

How did COc1ccc(Br)cc1C(=O)Nc1ccc(Cc2ccncc2)cc1 do in these assays?
Sa ugtP lethal: -11.2; Bead autofluor: 11225; BJeLR viability: 9.8; Sa RN4220 lethal: -1.1; Mtb hypoxia rep: -4.4; PrP UTR inh: -19.2; Mtb hypoxia rep growth: 22.7

Results for Cc1ccc(C(=O)NCC(=O)OC(C)C(=O)Nc2ccc(N3CCOCC3)cc2)s1 (centres undefined) ?
Sa ugtP lethal: 11.1; Bead autofluor: 4297; BJeLR viability: 3.2; Sa RN4220 lethal: 1.8; Mtb hypoxia rep: 7.0; PrP UTR inh: -2.6; Mtb hypoxia rep growth: -4.5

What do the screens show for `Cc1ccc(C(=O)NC(=S)NCc2cccnc2)c(C)c1`?
Sa ugtP lethal: -3.1; Bead autofluor: 5748; BJeLR viability: -9.5; Sa RN4220 lethal: 3.2; Mtb hypoxia rep: 5.2; PrP UTR inh: 2.3; Mtb hypoxia rep growth: 4.0

What do the screens show for `N#CC(=NNc1ccc([N+](=O)[O-])cc1)C(N)=S`?
Sa ugtP lethal: 14.1; Sa RN4220 lethal: 16.7

Results for CC(C)c1ccc(NC(=O)COC(=O)c2cc(=O)[nH]c3ccccc23)cc1 ?
Sa ugtP lethal: -2.1; Bead autofluor: 8583; Sa RN4220 lethal: -0.3; Mtb hypoxia rep: 1.9; PrP UTR inh: -11.5; Mtb hypoxia rep growth: -6.4

How did O=C(COC(=O)CCCC1=NS(=O)(=O)c2ccccc2N1)Nc1ccccc1 do in these assays?
Sa ugtP lethal: -4.5; Bead autofluor: 5541; BJeLR viability: -5.1; Sa RN4220 lethal: 1.2; Mtb hypoxia rep: -0.2; PrP UTR inh: -18.6; Mtb hypoxia rep growth: 12.7

What do the screens show for `Cn1c(=O)n(Cc2ccccc2Br)c2ccccc21`?
Sa ugtP lethal: 3.2; Bead autofluor: 3623; BJeLR viability: -16.6; Sa RN4220 lethal: 1.6; Mtb hypoxia rep: 4.9; PrP UTR inh: -22.2; Mtb hypoxia rep growth: 10.7

Results for C=Cn1cc[n+](CC(=O)c2ccc(Cl)c(Cl)c2)c1 ?
Sa ugtP lethal: -0.7; Bead autofluor: 3290; BJeLR viability: 0.8; Sa RN4220 lethal: 4.7; Mtb hypoxia rep: -2.0; PrP UTR inh: -32.3; Mtb hypoxia rep growth: -2.0

What do the screens show for `CCOCCCn1c(SCC(=O)Nc2cc(C(C)(C)C)nn2-c2ccccc2)nc2ccccc2c1=O`?
Sa ugtP lethal: -2.7; Bead autofluor: 2662; BJeLR viability: -3.1; Sa RN4220 lethal: 5.1; Mtb hypoxia rep: 4.4; PrP UTR inh: -20.4; Mtb hypoxia rep growth: 20.0

Results for O=C(Nc1ccon1)Nc1ccccc1C(F)(F)F ?
Sa ugtP lethal: 3.5; Bead autofluor: 5883; BJeLR viability: 3.0; Sa RN4220 lethal: 1.9; Mtb hypoxia rep: 6.6; PrP UTR inh: -11.6; Mtb hypoxia rep growth: 11.2

What do the screens show for `Cc1ccc(S(=O)(=O)Nc2nc3cc(C)c(C)cc3[nH]2)cc1`?
Sa ugtP lethal: -11.7; Bead autofluor: 5048; BJeLR viability: -1.9; Sa RN4220 lethal: 4.2; Mtb hypoxia rep: 6.6; PrP UTR inh: -3.9; Mtb hypoxia rep growth: 10.0

How did CN(C)c1nc(SCCOC(=O)Nc2ccccc2)nc(N(C)C)n1 do in these assays?
Sa ugtP lethal: -1.3; Bead autofluor: 10494; BJeLR viability: -2.9; Sa RN4220 lethal: 3.6; Mtb hypoxia rep: 4.5; PrP UTR inh: -12.6; Mtb hypoxia rep growth: 8.3

How did Cc1cc(C)c(C#N)c(SCC(=O)Nc2ccccc2C)n1 do in these assays?
Sa ugtP lethal: -4.6; Bead autofluor: 4536; BJeLR viability: 1.5; Sa RN4220 lethal: 7.1; Mtb hypoxia rep: 13.9; PrP UTR inh: -36.0; Mtb hypoxia rep growth: 7.7

How did C(#Cc1ccccc1)CN1CCN(c2ccccn2)CC1 do in these assays?
Sa ugtP lethal: 26.6&23.6; Bead autofluor: 3814&4237; BJeLR viability: 6.5; Sa RN4220 lethal: -0.7&-2.9; Mtb hypoxia rep: 7.9&13.2; PrP UTR inh: -20.5&-48.4; Mtb hypoxia rep growth: 8.0&4.2

What do the screens show for `CCCCNC(C(=O)Nc1ccc(Cl)c([N+](=O)[O-])c1)c1ccccc1` (centres undefined)?
Sa ugtP lethal: -11.2; Bead autofluor: 2681; BJeLR viability: 1.4; Sa RN4220 lethal: 2.6; Mtb hypoxia rep: 3.1; PrP UTR inh: -11.7; Mtb hypoxia rep growth: 0.1

How did CC(C)Cc1ccc(C(C)C(N)=NCCc2ccccc2)cc1 (centres undefined) do in these assays?
Bead autofluor: 4685; BJeLR viability: 13.1; PrP UTR inh: -17.3

Results for Cc1ccnc(NS(=O)(=O)c2ccc(NC(=O)Cc3cccs3)cc2)n1 ?
Sa ugtP lethal: -1.4; Bead autofluor: 21122*; BJeLR viability: 3.0; Sa RN4220 lethal: 3.0; Mtb hypoxia rep: 6.4; PrP UTR inh: -6.4; Mtb hypoxia rep growth: 10.0

Results for COc1ccc(C2NC(=S)N(c3ccccc3)C(C)=C2C(=O)Nc2ccccc2)cc1 (centres undefined) ?
Sa ugtP lethal: 2.5; Bead autofluor: 3470; BJeLR viability: -12.5; Sa RN4220 lethal: 4.2; PrP UTR inh: -13.3

How did Cc1nc(NCC2CCCO2)c2nnn(Cc3ccccc3)c2n1 (centres undefined) do in these assays?
Sa ugtP lethal: 11.9; Bead autofluor: 15231; BJeLR viability: 7.1; Sa RN4220 lethal: 3.7; Mtb hypoxia rep: 4.9; PrP UTR inh: 0.3; Mtb hypoxia rep growth: 2.6

Results for CCOc1ccc(NC(=O)CN(C)C(=O)/C=C/c2ccco2)cc1OCC ?
Sa ugtP lethal: 3.5; Bead autofluor: 5084; Sa RN4220 lethal: -0.2; Mtb hypoxia rep: 5.6; PrP UTR inh: -2.2; Mtb hypoxia rep growth: -0.8

What do the screens show for `O=C(N/N=C/c1ccc[nH]1)c1cc(-c2ccc(Cl)cc2)nc2ccccc12`?
Bead autofluor: 4591; BJeLR viability: -3.8; PrP UTR inh: 4.9

How did CC(C(=O)OCC(=O)NC1CCCC1)N1C(=O)c2ccccc2C1=O (centres undefined) do in these assays?
Sa ugtP lethal: 1.1; Bead autofluor: 3353; Sa RN4220 lethal: 2.1; Mtb hypoxia rep: 6.2; PrP UTR inh: -19.0; Mtb hypoxia rep growth: 8.4

How did Cc1cccc(C(=O)NCC(=O)N2CCN(c3ccc(Cl)cc3)CC2)c1 do in these assays?
Sa ugtP lethal: 5.3; Bead autofluor: 3949; BJeLR viability: 11.4; Sa RN4220 lethal: -6.4; Mtb hypoxia rep: -2.1; PrP UTR inh: -16.6; Mtb hypoxia rep growth: -6.3

How did CN1C(C(=O)NCC2CC2)CC2Cn3c(nc4ccccc43)C21 (centres undefined) do in these assays?
Sa ugtP lethal: -0.9; Bead autofluor: 3652; BJeLR viability: -3.0; Sa RN4220 lethal: -0.8; Mtb hypoxia rep: 12.8; PrP UTR inh: -30.2; Mtb hypoxia rep growth: 7.2

Next part; the last two above are carried over.
How did Cc1cccc(C(=O)NCC(=O)N2CCN(c3ccc(Cl)cc3)CC2)c1 do in these assays?
Sa ugtP lethal: 5.3; Bead autofluor: 3949; BJeLR viability: 11.4; Sa RN4220 lethal: -6.4; Mtb hypoxia rep: -2.1; PrP UTR inh: -16.6; Mtb hypoxia rep growth: -6.3

How did CN1C(C(=O)NCC2CC2)CC2Cn3c(nc4ccccc43)C21 (centres undefined) do in these assays?
Sa ugtP lethal: -0.9; Bead autofluor: 3652; BJeLR viability: -3.0; Sa RN4220 lethal: -0.8; Mtb hypoxia rep: 12.8; PrP UTR inh: -30.2; Mtb hypoxia rep growth: 7.2

How did O=C(c1ccccc1)N1CCN(C(=O)c2ccccc2)CC1 do in these assays?
Sa ugtP lethal: 6.6; Bead autofluor: 3075; BJeLR viability: -3.7; Sa RN4220 lethal: 10.8; Mtb hypoxia rep: 3.2; PrP UTR inh: -2.8; Mtb hypoxia rep growth: -15.0

Results for CN(Cc1ccccc1)C(=O)c1ccco1 ?
Sa ugtP lethal: 8.5; Bead autofluor: 4421; BJeLR viability: -22.5; Sa RN4220 lethal: 0.5; Mtb hypoxia rep: -3.2; PrP UTR inh: 0.9; Mtb hypoxia rep growth: 4.3

How did C=CCOc1ccc(C=NNc2ccc(S(=O)(=O)Nc3ccccc3C(=O)O)cc2[N+](=O)[O-])cc1OC do in these assays?
Sa ugtP lethal: 1.6; Bead autofluor: 3070; Sa RN4220 lethal: 11.1; Mtb hypoxia rep: 12.3; PrP UTR inh: -11.3; Mtb hypoxia rep growth: 5.6

Results for O=C(COC(=O)c1ccc[n+]([O-])c1)Nc1ccc([N+](=O)[O-])cc1C(F)(F)F ?
Sa ugtP lethal: -7.4; Bead autofluor: 3900; Sa RN4220 lethal: 1.4; Mtb hypoxia rep: -1.3; PrP UTR inh: 0.6; Mtb hypoxia rep growth: 9.8

How did CN1CCN(c2oc(-c3ccccc3)nc2S(=O)(=O)c2ccccc2)CC1 do in these assays?
Sa ugtP lethal: 6.8; Bead autofluor: 3307; Sa RN4220 lethal: 5.2; Mtb hypoxia rep: 14.8; PrP UTR inh: -20.5; Mtb hypoxia rep growth: 8.0

How did Cc1cc(NC(=O)CCCC(=O)O)nc(C)n1 do in these assays?
Sa ugtP lethal: 8.0; Bead autofluor: 9228; BJeLR viability: 9.5; Sa RN4220 lethal: 2.5; Mtb hypoxia rep: 8.6; PrP UTR inh: -11.6; Mtb hypoxia rep growth: -2.5

What do the screens show for `Cc1nc(Cc2nnc(SC(C)C(=O)Nc3cccc(C#N)c3)o2)cs1` (centres undefined)?
Sa ugtP lethal: 2.0; Bead autofluor: 5869; BJeLR viability: -6.9; Sa RN4220 lethal: 0.2; Mtb hypoxia rep: -10.1; PrP UTR inh: -27.6; Mtb hypoxia rep growth: 3.4

Results for Cc1ccc(NC(=O)CSCC(=O)N2CCN(C(=O)c3ccco3)CC2)cc1 ?
Sa ugtP lethal: 3.4; Bead autofluor: 3788; Sa RN4220 lethal: 4.1; Mtb hypoxia rep: 20.5; PrP UTR inh: -28.2; Mtb hypoxia rep growth: 10.7

What do the screens show for `Cc1nn(-c2ccccc2)c(N2CCCCC2)c1/C=N/O`?
Bead autofluor: 10340; BJeLR viability: -4.0; PrP UTR inh: -17.3

Results for COC(=O)C1=C(C)NC(=O)/C1=C\c1cc(C)n(-c2ccc(F)cc2)c1C ?
Sa ugtP lethal: 1.6; Bead autofluor: 2605; BJeLR viability: -2.1; Sa RN4220 lethal: 7.3; Mtb hypoxia rep: 9.8; PrP UTR inh: -26.0; Mtb hypoxia rep growth: 7.8

What do the screens show for `Cc1ccc(S(=O)(=O)N2CCC(C(=O)Nc3nnc(-c4ccc(F)cc4)s3)CC2)cc1`?
Sa ugtP lethal: -8.4; Bead autofluor: 2424; BJeLR viability: 11.5; Sa RN4220 lethal: -0.6; Mtb hypoxia rep: 2.4; PrP UTR inh: -56.7; Mtb hypoxia rep growth: 2.0

Results for CCOc1ccc(C(=O)Cc2cc3cccc(OC)c3oc2=O)cc1 ?
Sa ugtP lethal: 10.4; Bead autofluor: 3715; BJeLR viability: 6.6; Sa RN4220 lethal: 7.1; Mtb hypoxia rep: -0.5; PrP UTR inh: -16.7; Mtb hypoxia rep growth: 10.9

What do the screens show for `S=c1nc(C2CC2)[nH]c2ccccc12`?
Sa ugtP lethal: -4.0; Bead autofluor: 3411; BJeLR viability: -1.8; Sa RN4220 lethal: -1.5; PrP UTR inh: -17.4

Results for COc1cc(OC)cc(C(=O)N[C@H](C(=O)Nc2ccc3c(c2)OCO3)C(C)C)c1 ?
Sa ugtP lethal: 5.4; Bead autofluor: 2946; BJeLR viability: 0.6; Sa RN4220 lethal: 3.2; Mtb hypoxia rep: 7.2; PrP UTR inh: -16.3; Mtb hypoxia rep growth: -3.1

Results for CC(C)NC(=O)NC(=O)COc1cccc2c1OC(C)(C)C2 ?
Sa ugtP lethal: -2.0; Bead autofluor: 3309; BJeLR viability: 1.0; Sa RN4220 lethal: -7.9; Mtb hypoxia rep: -6.4; PrP UTR inh: -2.0; Mtb hypoxia rep growth: 4.7

What do the screens show for `CCCC(=O)NCCc1nc2ccccc2n1CCC`?
Sa ugtP lethal: -4.8; Bead autofluor: 6334; BJeLR viability: -5.0; Sa RN4220 lethal: 3.8; Mtb hypoxia rep: 3.5; PrP UTR inh: -38.3; Mtb hypoxia rep growth: 5.4

Outcome played no part in choosing rows (roughly 4% active in at least one column).
